Mtb growth = Mycobacterium tuberculosis H37Rv growth inhibition, cell based, confirmatory dose response (AID 1949). M. tuberculosis H37Rv growth inhibition. inhibition, % at 10 µg/mL; hits with a dose series show IC50 in µg/mL. 1.6% of 100,000 active. most inactive calls were filed without a number and no value below 0 was filed;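 active means confirmed in a dose series; inconclusive means about 50% or more but not retested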;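 further: bacteria grown 7 days with compound before Alamar blue readout; 0% = untreated bacteria and 100% = reference antibiotic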
The depositor's hits bear a star; i = inactive; ? = inconclusive.

smiles	Mtb growth
N#Cc1ccccc1CSC1=NCCS1	i
COc1ccc(OCCN(C)C2CCCCC2)cc1	i
CN(CC(=O)Nc1ccccc1C#N)S(=O)(=O)c1cc(Cl)ccc1Cl	i
O=C(NC(=S)Nc1ccccc1N1CCCC1)c1cc2ccccc2o1	i
O=S(=O)(Cc1ccc(Cl)cc1)Nc1nc2c(s1)CCCC2	i
COc1ccc(C2=C[N+](=O)C3CCCCC3N2[O-])c(OC)c1 (stereo not given)	i
COc1ccccc1OCCCN1C(=O)C(=O)c2ccccc21	i
C=CCn1c(SCC(=O)Nc2cc(C)cc(C)c2)nnc1-c1cc(Br)ccc1O	i
Cc1cc(C)cc(C(=O)Nn2cnnc2)c1	6.9%
CCC(=O)Nc1ccccc1C(=O)N1CCCC1	1.2%
CN1CCN(C(=O)c2cc3nc4c(c(C(F)(F)F)n3n2)CCc2ccccc2-4)CC1	i
CCOc1ncnc2c1sc1nc(N3CCOCC3)c3c(c12)CCCC3	0.1%
Cc1ccc(SCC(=O)c2c(C)[nH]c3ccccc23)cc1	i
COc1ccccc1OCc1nc2c3c4c(sc3ncn2n1)CCCC4	i
CCOC(=O)c1sc2ncn(CC)c(=O)c2c1C	i
CC(=O)Nc1ccc(C(=O)Nc2cccc(-c3cnc4ccccc4n3)c2)cc1	4.1%
CC(=O)N(Cc1ccccc1)c1ccc(-c2nc3ccc(C)cc3s2)cc1	i
Cc1cc(CO)c(C)n1-c1ccc(F)c(Cl)c1	0.8%
O=C(Nc1ccccc1)c1ccc(NCc2ccccc2)c(S(=O)(=O)N2CCOCC2)c1	i
COc1ccc(N(C(C)C(=O)Nc2cccc(OC)c2)S(C)(=O)=O)cc1 (stereo not given)	i
CC(NS(=O)(=O)c1ccc(F)cc1)C(=O)NCc1ccccc1 (stereo not given)	i
CCC(=O)NC(=S)Nc1ccc(NC(=S)NC(=O)c2cccc(OC(C)C)c2)cc1	i
O=[N+]([O-])c1ccccc1OCCCNCc1ccco1	i
Cc1nn(C(C)CC(=O)O)c(C)c1Cl (stereo not given)	i
COc1ccc(-c2occ(C(=O)O)c2C(=O)O)cc1	i
CCOc1cc(C=O)cc(I)c1OCC(=O)O	i
N#Cc1cnc2c(-c3ccccc3)c(-c3ccccc3)nn2c1N	38.5%
Cc1cc(C)nc(NC(=O)Nc2cccc(Cl)c2)n1	0.8%
COc1ccc(NS(=O)(=O)c2ccc(NS(=O)(=O)c3ccc(Cl)cc3)cc2)c(OC)c1	i
O=C(Nn1cnnc1)c1cn(-c2ccccc2)nc1-c1ccncc1	i
CC1=C(C(=O)Nc2ccccc2)C(c2ccc(C)cc2)NC(=S)N1 (stereo not given)	i
CCCOc1ccc(C(=O)Nc2cc(Cl)ccc2OC)cc1	i
O=C(NC(=S)Nc1ccc(Oc2ccccc2)cc1)c1ccccc1[N+](=O)[O-]	2.0%
CCn1c(-c2ccc(F)cc2)n[nH]c1=S	i
CCc1cccc(CC)c1NC(=O)CSc1ccccn1	i
COc1cc(NC(=S)NC2CCCC2)cc(OC)c1	1.2%
CNS(=O)(=O)c1cc(N(C)S(=O)(=O)c2ccc(C)cc2)c(C)cc1C	i
Clc1ccc(OCc2nc3c4c5c(sc4ncn3n2)CCCCC5)cc1	i
CCc1ccc(Nc2nc(N)nc(CSc3nnnn3-c3ccccc3)n2)cc1	i
Cc1nc(N2CCN(Cc3ccc4c(c3)OCO4)CC2)c2c3c(sc2n1)CCCC3	8.5%
CCC(=O)Nc1cc(-c2nc3cc(OC)ccc3o2)ccc1C	i
CCN1CCN(CCCCOc2ccc(I)cc2)CC1	i
Cc1cc(-c2ccccc2)nc(SCC(=O)c2ccccc2)n1	i
CC1(C)C(=O)C2(C(=O)Nc3ccc(Cl)cc3)CCC1C2 (stereo not given)	i
COc1ccc(S(=O)(=O)N2CCC(C(=O)Nc3ccc(C)cc3)CC2)cc1	i
O=C(Oc1ccc2ccccc2c1Cl)N1CCCCC1	6.8%
CCOC(=O)c1c(C)oc2ccc(OCc3ccc(C(=O)OC)cc3)cc12	7.8%
COC(=O)c1ccccc1NC(=O)CSc1nc2sc(C)c(C)c2c(=O)n1C	i
CCOC(=O)COc1ccc2c(c1)c(C(=O)OCC)c(C)n2CC(C)C	38.0%
c1ccc(-c2ccc(CNCC3CCCO3)cc2)cc1 (stereo not given)	6.3%
Cc1cc(C)cc(C(=O)Nc2ncn[nH]2)c1	i
O=C(O)c1ccccc1C(=O)c1cc(Cl)ccc1Cl	i
COc1cc2c(cc1OC)CN(C(=O)C(C)(C)C)CC2	i
CC(C)(C)NC(=S)Nc1ccc([N+](=O)[O-])cc1	i
CC(=O)c1cn(CC(=O)NCc2cccs2)c2ccccc12	i
Fc1ccc(NC(=S)NCc2cccs2)cc1	i
CC(C)CC(=O)Nc1ccc(Cc2ccncc2)cc1	0.5%
O=c1cccc2n1C1CC(C2)CN(C(=S)Nc2ccccc2)C1 (stereo not given)	i
CN(C)S(=O)(=O)c1ccc(NC(=O)c2cncc(Br)c2)cc1	6.8%
OCc1cn(-c2ccccc2)nc1-c1cc2ccccc2o1	?

3 records picked at random from those above, as already listed:
smiles	Mtb growth
COc1ccc(C2=C[N+](=O)C3CCCCC3N2[O-])c(OC)c1 (stereo not given)	i
OCc1cn(-c2ccccc2)nc1-c1cc2ccccc2o1	?
CCOC(=O)c1sc2ncn(CC)c(=O)c2c1C	i

(next part)
smiles	Mtb growth
COc1ccc(Nc2ccncc2[N+](=O)[O-])cc1	0.2%
Fc1ccc(NC(=S)Nc2ccc(Br)cn2)c(F)c1	i
CSc1cccc(NC(=O)CSc2nnc(CNC(=O)c3ccc(Cl)cc3)n2C)c1	i
Cc1ccc2nc(C(=O)O)cc(C(=O)O)c2c1	1.0%
CSc1ccccc1NC(=O)Nc1ccccc1	4.1%
COc1ccc(C(=O)CCC(=O)Nc2ccc(Cl)cc2)cc1	i
COc1ccc(-c2nnc(SC(C)C(=O)Nc3nccs3)n2-c2ccccc2)cc1OC (stereo not given)	i
CCOc1ccc(NC(=O)C(=O)N2CCCCC2)cc1	i
O=S(c1ccc2ccccc2c1)N1CCCCC1 (stereo not given)	i
CC(=O)N1c2ccccc2NC(=O)C1CC(=O)Nc1ccccc1Cl (stereo not given)	i
CN1CCN(S(=O)(=O)c2ccc(C(=O)O)cc2)CC1	i
O=C(O)CC(Cc1ccc(Br)cc1)C(=O)NC1CCCCC1 (stereo not given)	i
O=C(Nc1cccc(S(=O)(=O)c2cccc(NC(=O)c3cccs3)c2)c1)c1cccs1	i
COC(=O)c1sc2cc(NC(=S)N3CCc4ccccc4C3)ccc2c1Cl	i
O=S(=O)(Nc1ccc(OC(F)(F)F)cc1)c1ccc(F)cc1	7.0%
COC(=O)c1ccccc1NC(=O)NNC(=S)Nc1ccc(Cl)cc1	i
CCc1ccc(C(=O)NC(C(=O)NCC2CCCO2)C(C)C)cc1 (stereo not given)	3.7%
CC(C(=O)Nc1cc(Cl)ccc1Cl)N1C(=O)c2ccccc2C1=O (stereo not given)	i
O=c1c2c3c(sc2nc2c4ccccc4c(NCCOCCO)nn12)CCCC3	4.0%
CCN1CCN(CCCOc2ccccc2Cc2ccccc2)CC1	i

The last 10 records of the section before come first, to join the parts:
SMILES	Mtb growth
CN1CCN(S(=O)(=O)c2ccc(C(=O)O)cc2)CC1	i
O=C(O)CC(Cc1ccc(Br)cc1)C(=O)NC1CCCCC1 (stereo not given)	i
O=C(Nc1cccc(S(=O)(=O)c2cccc(NC(=O)c3cccs3)c2)c1)c1cccs1	i
COC(=O)c1sc2cc(NC(=S)N3CCc4ccccc4C3)ccc2c1Cl	i
O=S(=O)(Nc1ccc(OC(F)(F)F)cc1)c1ccc(F)cc1	7.0%
COC(=O)c1ccccc1NC(=O)NNC(=S)Nc1ccc(Cl)cc1	i
CCc1ccc(C(=O)NC(C(=O)NCC2CCCO2)C(C)C)cc1 (stereo not given)	3.7%
CC(C(=O)Nc1cc(Cl)ccc1Cl)N1C(=O)c2ccccc2C1=O (stereo not given)	i
O=c1c2c3c(sc2nc2c4ccccc4c(NCCOCCO)nn12)CCCC3	4.0%
CCN1CCN(CCCOc2ccccc2Cc2ccccc2)CC1	i
COc1cc(OC)c(C(=O)Nc2cccnc2)cc1OC	i
C=CCOc1ccc(CNCc2cccs2)cc1	i
O=C(Cn1cnnn1)Nc1cccc([N+](=O)[O-])c1	0.7%
COc1cccc(NS(=O)(=O)c2cccc(C)c2)c1	i
O=C(NCCOc1ccccc1-c1ccccc1)c1cccs1	13.7%
COc1ccc(-c2cc(-c3ccc(Cl)cc3)n3ncnc3n2)cc1OC	i
CCC(=O)c1ccc(OCC(=O)O)c(OC)c1	i
CCC(CC)NC(=O)c1cc(Cl)ccc1Cl	i
CN(C)CCCNS(=O)(=O)c1ccc2c(c1)Cc1cc(S(=O)(=O)NCCCN(C)C)ccc1-2	2.3%
CCN(CC)S(=O)(=O)c1ccc(F)cc1	i
COC(=O)c1sccc1NC(=O)C1CCCCC1C(=O)O (stereo not given)	i
COC(=O)CNC(=O)C12CC3CC(C1)CC(c1ccc(C)cc1)(C3)C2	i
COc1ccccc1CNS(=O)(=O)c1ccc(OC)c(Cl)c1Cl	i
COc1cc(CNC(=O)c2ccc3ccccc3c2OC)cc(OC)c1OC	i
C=CCN(c1ccc(C(=O)Nc2ccc3c(c2)OCCO3)cc1)S(C)(=O)=O	i
Cc1sc2ncnc(SCc3ccc(Br)cc3)c2c1C	i
CCOC(=O)C1CCN(C(=O)CN2C(=O)c3ccccc3S2(=O)=O)CC1	i
Cn1c(Cc2ccccc2)nnc1SCC(=O)NCc1cc(C(=O)c2ccccc2)ccc1O	i
O=C(CC1(O)C(=O)N(CCc2ccccc2)c2ccccc21)c1ccc2c(c1)OCCO2 (stereo not given)	i
O=C(NCc1cccnc1)C1CCN(S(=O)(=O)c2ccc(F)cc2)CC1	1.5%
Cc1nc(NS(=O)(=O)c2ccccc2)sc1NC(=O)Nc1ccccc1	i
O=C(c1ccc([N+](=O)[O-])cc1)N1CCN(C2CCC(c3ccccc3)CC2)CC1 (stereo not given)	i
O=C(N1CCN(c2ccc(Cl)c(Cl)c2)CC1)C12CC3CC(CC(C3)C1)C2	8.2%
Cc1cc(C)n(-c2ccc(C(=O)OCc3ccccc3)cc2)n1	i
C=CCOc1c(Cl)cc(CNCCCC)cc1OC	i
Clc1ccc(CNc2ncnc3nc[nH]c23)cc1	i
COC(=O)c1cc(OC)c(OC)cc1NC(=S)NCCc1ccc(OC)c(OC)c1	i
Cc1ccc(S(=O)(=O)CCC(=O)OCc2ccc(C(=O)c3ccccc3)cc2)cc1	i
CCc1ccccc1NC(=O)c1ccc(N(C)S(=O)(=O)c2ccccc2)cc1	i
O=C1c2oc3ccccc3c(=O)c2C(c2ccco2)N1c1nccs1 (stereo not given)	i
COc1ccc(S(=O)(=O)N(C)CC(=O)NCc2ccco2)cc1OC	i
O=C(NCc1ccc2c(c1)OCO2)C(=O)c1c(-c2ccccc2)[nH]c2ccccc12	32.6%
Cc1ccc(S(=O)(=O)Nc2cccc(C(F)(F)F)c2)cc1C(=O)O	i
CCCCOc1cccc(C(=O)Nc2ccccc2CC)c1	i
CCCCC(=O)Nc1cc(C)c(I)cc1C	28.6%
O=C(Oc1ccccc1[N+](=O)[O-])c1ccc(Cl)cc1Cl	i
CCOC(=O)c1c(NC(=O)CSc2nc(C)c3c(n2)CCCC3)sc2c1CCCC2	i
O=C(COc1ccccc1)NC1CCS(=O)(=O)C1 (stereo not given)	i
Cc1cc(C)cc(NC(=O)CN(C2CCCCC2)S(C)(=O)=O)c1	i
CCN(CC)S(=O)(=O)c1ccc(OC)c(NC(=O)Cc2ccc(C)cc2)c1	i
COC(=O)c1cn(CC(=O)NC2CC2)c2ccccc12	i
O=C(NCCCN1CCCC1=O)C1CCCO1 (stereo not given)	i
CN(C)c1ccc(C(=O)NCCc2ccc(S(N)(=O)=O)cc2)cc1	2.8%
O=S(=O)(Nc1ccc(Cl)cc1F)c1ccc(Br)cc1	i
CCN(CC)CCNC(=O)c1ccc(OC)c([N+](=O)[O-])c1	i
COCCNC(=S)Nc1nc(OC)cc(OC)n1	i
CN1C(=O)c2ccc(C(=O)NCc3ccco3)cc2C1=O	i
COc1ccc(Cl)cc1Nc1nnc(-c2cnccn2)s1	i
COc1ccc(S(=O)(=O)N2CCN(C(=S)Nc3ccc(S(N)(=O)=O)cc3)CC2)cc1	i
COc1ccc(NC(=O)C2CC2(c2ccccc2)c2ccccc2)c(OC)c1 (stereo not given)	i
CC(C)(C)c1ccc(OCC(=O)Nc2ccc(Cl)cc2C(F)(F)F)cc1	7.0%
CC(=O)Oc1ccc2nc(-c3ccccc3C)oc(=O)c2c1	17.5%
COc1ccc(CSCC(=O)Nc2ccc(Br)cc2F)cc1	i
CC1(C)CC(=O)C2=C(C1)N(Cc1ccccc1Cl)C(=O)C2(NC(=O)c1cccs1)C(F)(F)F (stereo not given)	i
Cn1c2ccccc2n2c(SCC(=O)N3CCN(c4ccccc4)CC3)nnc12	i
CC(C)c1ccc(OCCCCNCCO)cc1	i
COc1ccc(NC(=O)C(=O)NC(C)C)c(OC)c1	i
Cc1cc(C)c2c(N)c3cccc(C)c3nc2n1	i
CCOc1ccccc1C(=O)Nc1ccccc1NC(=O)c1ccccc1OCC	i
O=C(c1c(F)c(F)c(F)c(F)c1F)N1CCN(c2cccc(C(F)(F)F)c2)CC1	i
Cc1cc(=O)[nH]c(SCC(=O)c2ccc(F)c(C)c2)n1	i
Cc1cc(I)ccc1NC(=O)CSc1nnc(CNC(=O)c2ccc(Cl)cc2)n1C	i

Assay outcomes from PubChem BioAssay.

A portion of the library (hit frequency here may not be typical).
